Screening data deposited in PubChem by National Center for Advancing Translational Sciences (NCATS).
TRPML1 agonist: qHTS for Agonists of the Human Mucolipin Transient Receptor Potential 1 (TRPML1). Mucolipin-1 (Homo sapiens), Q9GZU1. TRPML1-expressing cells, Ca2+ dye fluorescence, FDSS; host cell line not named in the record; reference of the full effect not given here. activation, % (concentration not given with the values). 410,000 compounds, 0.12% hits; in the data active = activation above about 50%; inconclusive = about 30% to 50%; inactive = below about 30%; also: 0% is about no effect; the text of the record puts the active cut at 80%
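TRPML1-DL cells, Tet-induced overnight (~16 h, 37 degrees C), loaded 45-90 min at room temperature with Ca8 no-wash calcium dye plus quencher. FDSS fluorescence: 10 s baseline, compound pin-transfer, 110 s agonist read, then EC80 54-4 (4uM final) and 110 s antagonist read.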
CtBP-E1A blk: qHTS Assay for Inhibitors of the CtBP/E1A Interaction. CtBP / adenovirus E1A interaction (AlphaScreen). AlphaScreen GST-E1A/His-CtBP binding, 1536-well; stronger effect = lower value; control for the full effect not named in the record. activity change, % (no concentration beside the values). 340,000 compounds, 0.49% hits; in the data active means activity change below about -65%; inconclusive means about -30% to -65%; inactive means above about -30%; also: % is scaled to controls: 0 for no effect and ±100 for the full control effect
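In 5 uL wells, 23 nL compound meets equimolar GST-E1A and His-CtBP (5X stock 125 nM each) for 2 h, 37 °C. Beads (5X, 50 ug/mL) then 1 h, 37 °C, dark.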
D2 potentiator: Beta-Arrestin HTS for Positive Allosteric Modulators of the Human D2 Dopamine Receptor: Potentiators | DiscoveRx D2 beta-arrestin cells, luminescence, 90 min; 100% = 57 uM dopamine signal | potentiation, % (test concentration not listed) | 360,000 compounds, 0.23% hits | AID 624464, 2012; active = potentiation of 50% or more; inconclusive = 30% to 50%; inactive = 30% or less;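 also: compound concentration not given in the record; tested on top of an EC20 dose of dopamine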
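D2 cells co-treated with compound plus 50 nM dopamine (EC20) for 90 min at 37 deg C to detect potentiation. Beta-arrestin recruitment was read as enzyme-fragment luminescence after 1 h at ambient temperature. Full response was set by 57 uM dopamine.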
TRPV1 PAM: HTS Assay for Compounds that Act as Potentiators of the Vanilloid Receptor 1; TRPV1-expressing cells, Fluo-8 calcium influx, capsaicin EC20 potentiation; host cell line not named in the record; control for the full effect not named in the record; 320,000 compounds, 0.02% hits; Transient receptor potential cation channel subfamily V member 1 (Homo sapiens), Q8NER1; AID 540277, 2011; potentiation, % at 8.33 µM; active means potentiation above 80%; inconclusive means 30% to 80%; inactive means below 30%; also: 0% is about no effect
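Fluo-8 calcium influx in TRPV1-expressing cells, kinetic read (ex 480/em 520 nm). Compound added and read 3 min for agonist activity, followed by capsaicin at EC20 final and 2 min further read for enhancement.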
TRPML1 inh: qHTS for Inhibitors of the Human Mucolipin Transient Receptor Potential 1 (TRPML1); AID 624415, 2012; activity change, negative = inhibition, % (no concentration beside the values); TRPML1-inducible cells, Ca2+ dye fluorescence, FDSS; stronger effect = lower value; inhibition of EC80 agonist-evoked calcium signal; 390,000 compounds, 0.02% hits; in the data active means activity change below about -50%; inconclusive means about -30% to -50%; inactive means above about -30%;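 also: stimulus is agonist 54-4 at its EC80 concentration; % is scaled to controls: 0 for no effect and ±100 for the full control effect; compound concentration not given in the record; the text of the record puts the active cut at -80%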
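Calcium fluorescence in TRPML1-DL cells induced overnight with Tet: a 110 s read after compound pin addition, then a 110 s antagonist read after challenge with 54-4 at 4 uM final (EC80).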
Six1-Eya2 inh: qHTS Assay for Inhibitors of the Six1/Eya2 Interaction; AlphaScreen GST-Six1/His-Eya2 binding, biochemical; stronger effect = lower value; control for the full effect not named in the record; activity change, % (test concentration not listed); 360,000 compounds, 0.56% hits; in the data active = activity change below about -65%; inconclusive = about -30% to -65%; inactive = above about -30%; also: % is scaled to controls: 0 for no effect and ±100 for the full control effect
Target sequence (O00167 whole entry, looked up): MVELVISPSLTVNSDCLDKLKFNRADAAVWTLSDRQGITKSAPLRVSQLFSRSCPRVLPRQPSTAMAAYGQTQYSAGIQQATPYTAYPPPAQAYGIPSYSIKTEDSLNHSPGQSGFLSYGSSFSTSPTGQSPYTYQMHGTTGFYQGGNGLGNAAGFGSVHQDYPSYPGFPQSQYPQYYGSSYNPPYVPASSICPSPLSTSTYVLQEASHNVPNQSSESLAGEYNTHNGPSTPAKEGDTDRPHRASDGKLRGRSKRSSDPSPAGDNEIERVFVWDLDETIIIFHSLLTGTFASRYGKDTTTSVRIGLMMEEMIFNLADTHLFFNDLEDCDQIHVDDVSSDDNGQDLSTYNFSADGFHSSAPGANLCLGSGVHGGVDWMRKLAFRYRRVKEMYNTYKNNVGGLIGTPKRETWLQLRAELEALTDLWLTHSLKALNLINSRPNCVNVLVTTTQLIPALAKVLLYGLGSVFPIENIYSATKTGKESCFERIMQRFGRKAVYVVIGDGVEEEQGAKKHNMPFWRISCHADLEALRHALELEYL
Target sequence (Q15475 whole entry, looked up): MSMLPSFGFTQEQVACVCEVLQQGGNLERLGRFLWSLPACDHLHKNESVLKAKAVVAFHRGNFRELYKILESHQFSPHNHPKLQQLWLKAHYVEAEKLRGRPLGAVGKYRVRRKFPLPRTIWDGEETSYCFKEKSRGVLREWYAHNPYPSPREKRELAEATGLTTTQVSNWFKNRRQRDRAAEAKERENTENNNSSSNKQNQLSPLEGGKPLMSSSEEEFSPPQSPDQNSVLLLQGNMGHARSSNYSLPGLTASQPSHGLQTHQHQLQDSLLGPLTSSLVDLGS
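Homogeneous AlphaScreen proximity assay pairing GST-Six1 with His-tagged Eya2 (added as 5X mix: 250 nM and 500 nM) in 50 mM Tris pH 8.0, 300 mM NaCl, 1 mM TCEP. Glutathione donor and nickel acceptor beads; 1 h, 37 °C, dark.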
Numbers without * were called inactive; ? = inconclusive; nt = no result given.

SMILES	TRPML1 agonist	CtBP-E1A blk	D2 potentiator	TRPV1 PAM	TRPML1 inh	Six1-Eya2 inh
COC(=O)c1sccc1NC(=O)C1CC1	1.7	9.2	-0.6	9.8	3.5	0.8
O=S(=O)(NC1CCN(Cc2ccccc2)CC1)c1ccc2ccccc2c1	-0.8	-7.1	-18.2	1.5	-20.3	-11.7
Cc1ccc(NC(=O)C2CCCN(S(=O)(=O)c3c(C)noc3C)C2)nc1 (configuration not stated)	0.1	5.9	-9.7	-2.3	-0.3	-2.2
CCOC(=O)C(=CNc1cc(C)nn1-c1ccccc1)C(=O)OCC	2.3	-9.0	2.4	-9.1	60.4	-10.4
CC(=O)c1c(N2CCCCC2)nc(=S)n(Cc2ccccc2)c1C	0.2	-13.6	7.6	-4.9	-0.2	-12.4
N#Cc1ccc(C23CC4(C2)[C@H](CN(CC2CCCCC2)[C@@H]4c2ccccc2)C3c2ccc(Cl)nc2)cc1 (some centres not stated)	-0.4	-4.5	-5.9	-14.3	18.3	-1.6
COCCn1c(SCC(=O)Nc2ccc(S(N)(=O)=O)cc2)nc2ccccc21	-0.2	-2.1	-6.7	-15.4	5.9	8.6
COc1ccc(NC(=O)CSc2nnc(Cc3ccccc3)c(=O)n2N)c(OC)c1	0.7	-1.7	-6.1	28.1	1.6	-4.4
O=C(CSc1ccncc1)Nc1ccc(S(=O)(=O)Nc2nccs2)cc1	0.4	nt	-11.5	6.1	23.5	-8.4
Cc1nc2ccccc2c2c1C(=O)N(c1ccc(C(=O)O)cc1)C2=O	0.0	17.9	6.3	-1.1	-6.2	-2.0
Cc1[nH]c(C)c(C(=O)/C=C/c2ccc([N+](=O)[O-])cc2)c1C	0.0	nt	-11.6	2.3	-2.5	-2.6
O=c1[nH]c2ccc(S(=O)(=O)N3CCCCC3)cc2[nH]c1=O	-0.4	4.8	-2.3	-2.7	-17.4	5.5
N#Cc1cc(-c2ccccc2)[nH]c1-c1nccc2ccccc12	-0.6	nt	-18.8	-14.8	-10.7	9.5
Cn1ccnc1Sc1ccc(/C=N/NC(=O)c2ccccc2O)cc1[N+](=O)[O-]	-0.5	-27.7	-30.2	-3.6	12.1	-26.0
Cc1ccc(-c2nn(-c3ccccc3)cc2/C=C/C(=O)O)o1	-0.3	nt	-11.0	-8.8	-11.8	-1.2
CC(=O)c1cccc(CN2CCCC(CCC(=O)NCc3ccc(C)o3)C2)c1 (configuration not stated)	0.4	-2.0	-9.2	2.4	24.6	-0.9
CCOc1ccc(NC(=S)N2CCN(S(C)(=O)=O)CC2)cc1	1.6	16.4	-3.8	-11.1	21.5	0.5
CC(=O)Nc1ccc(NC(=O)C2CC(=O)N(C(C)C)C2)cc1 (configuration not stated)	-0.1	-1.1	-5.9	12.8	6.5	-4.1
O=C(O)C1CCC(=O)N1Cc1ccccc1Cl (configuration not stated)	0.3	0.6	-7.0	5.1	9.6	-3.3
O=C(Cc1ccccc1)NCC(=O)Nc1ccccc1Br	-0.6	4.7	-7.7	3.7	1.8	0.3
O=C(CCc1nc2ccccc2c(=O)[nH]1)OCc1ccc(Cl)cc1Cl	1.1	1.1	-12.3	-4.9	3.2	6.0
Fc1ccc(COc2ccc(Br)cc2CNCc2ccncc2)cc1	-0.4	-1.4	-19.2	14.5	-1.1	3.1
Cc1ccc(-c2nn(-c3ccccc3)cc2/C=N/NC(=O)c2ccc3c(c2)OCO3)cc1	-0.3	-4.1	24.6	4.5	-11.1	-7.7
COc1cc2c(cc1OC)-c1cc(OCc3ccccc3Cl)nc(=O)n1CC2	2.2	-4.9	7.1	14.4	6.7	-2.8
OC[C@H]1O[C@@H]2O[C@H]3[C@H](O)[C@@H](O)[C@@H](O[C@H]4[C@H](O)[C@@H](O)[C@@H](O[C@H]5[C@H](O)[C@@H](O)[C@@H](O[C@H]6[C@H](O)[C@@H](O)[C@@H](O[C@H]7[C@H](O)[C@@H](O)[C@@H](O[C@H]1[C@H](O)[C@H]2O)O[C@@H]7CO)O[C@@H]6CO)O[C@@H]5CO)O[C@@H]4CO)O[C@@H]3CO	0.6	8.4	-9.4	10.8	-0.5	-0.6

Remaining list, next part:
SMILES	TRPML1 agonist	CtBP-E1A blk	D2 potentiator	TRPV1 PAM	TRPML1 inh	Six1-Eya2 inh
COc1cccc(NC(=O)CSc2nnc3ccc(-c4ccncc4)nn23)c1	-0.1	15.3	21.3	-18.2	-8.7	1.2
COc1ccc(CNC(=O)COC(=O)c2ccc(S(=O)(=O)N3CCOCC3)cc2)cc1	-0.6	4.4	-1.1	nt	-8.3	2.1
O=C(Cn1cnnn1)OCC(=O)c1ccc(Cl)s1	0.0	4.7	-21.4	-6.3	-1.0	-0.3
CC(Sc1n[nH]c(-c2cccs2)n1)C(=O)Nc1ccc(C(N)=O)cc1 (configuration not stated)	-0.3	2.9	-1.3	2.6	16.1	1.6
c1cnc(-c2noc(CN3CCN(C4CCCC4)CC3)n2)cn1	-0.2	0.9	-9.4	-11.2	10.1	3.3
CC(C(C(=O)N1CCCCC1)N1CCCCC1)N1CCCCC1 (configuration not stated)	0.9	0.9	-2.1	nt	-11.1	4.4
OC[C@@H]1CN(Cc2cccc(C(F)(F)F)c2)C[C@H](n2cnc3c(NCc4ccncc4)ncnc32)O1	-0.1	1.3	-6.4	nt	nt	3.5
CC1CCN(C(=O)CSc2nc3ccccc3[nH]2)CC1	0.7	-1.2	-15.1	-11.4	8.5	-2.2
O=C(NC1CCCCC1)C1c2ccccc2OCC(=O)N1CCc1c[nH]c2ccccc12 (configuration not stated)	1.0	12.3	nt	nt	nt	7.0
CCCCCc1ccnc(CC(=O)c2ccc(OC)cc2)c1	-0.4	1.9	-15.8	nt	-5.7	-0.4
Cc1ccc2c(c1)C1CN(C)CCC1N2C(=O)Nc1ccc(Cl)cc1 (configuration not stated)	2.4	11.4	-16.4	-17.5	-22.0	3.4
COc1cccc2cc(C(=O)N3CCCCC3C)c(=O)oc12 (configuration not stated)	-0.2	-1.9	-19.2	6.1	-6.8	-9.6
c1ccc2c3c(c(CN4CCCC4)cc2c1)COC3	-0.2	9.5	-36.7	2.3	-2.9	-7.9
COc1ccc(OC(C)C(=O)N2CCOCC2)cc1 (configuration not stated)	-0.5	4.6	-3.9	-0.2	-6.9	1.3
CCN(CC)CCNC(=O)CCCCCn1c(=O)[nH]c2cc(C(=O)OC)ccc2c1=O	-0.1	-5.4	-8.1	-0.4	-5.5	4.9
CN(C(=O)c1ccco1)c1ccccc1C(=O)O	nt	nt	1.7	-13.1	nt	0.7
COC(=O)c1sc(NC(=S)NC(=O)c2ccccc2)nc1C	0.2	5.1	0.8	-7.7	-2.5	-1.9
COc1ccc(OC)c(C2CC(=O)N3CN(c4ccccc4)CSC3=C2C#N)c1 (configuration not stated)	0.0	-1.5	-9.5	1.7	11.2	-5.5
Cc1cccc([C@@H]2[C@@H]3C(=O)N(Cc4ccccc4)C(=O)[C@@H]3[C@]3(Cc4ccc(Cl)cc4)C(=O)N(c4cccc(Br)c4)C(=O)N23)c1	1.1	nt	-8.0	-5.3	-1.0	-4.5
NC(=S)n1[nH]c(-c2ccc([N+](=O)[O-])cc2)c(N=Nc2ccc(Cl)cc2)c1=O	0.5	-2.6	-5.0	-15.9	15.6	-14.0
OCC(O)C1OC(Oc2ccccc2)C(O)C(O)C1O (configuration not stated)	0.9	6.9	-5.0	nt	28.0	4.6
CC(=O)C(C)Oc1cc(C)cc2oc(=O)c(C)c(C)c12 (configuration not stated)	0.9	4.8	-14.9	22.6	53.4	-2.5
COc1ccccc1NC(=O)CNC(=O)c1ccccc1	-0.2	0.6	-5.1	4.2	-5.6	-3.6
COc1ccc(N(CC(=O)NC2CCCC2)C(=O)Cn2nnc(-c3ccc(OC)c(OC)c3)n2)cc1	-0.4	-0.9	-6.3	-8.8	13.1	-0.4
Cc1nc(NC(=O)CSc2nnc3ccccn23)c(Cl)cc1Cl	0.2	5.5	-7.6	-19.4	4.5	13.6

(more compounds)
SMILES	TRPML1 agonist	CtBP-E1A blk	D2 potentiator	TRPV1 PAM	TRPML1 inh	Six1-Eya2 inh
CN(C)CC(=O)Nc1ccc(Oc2ccc(Cl)cc2)cc1	3.2	0.0	4.7	6.9	2.7	1.3
O=C(CCCOc1ccc(Cl)cc1)N1CCCCC1	0.8	-5.9	-13.3	-14.1	-0.5	0.7
O=C(Cc1ccccc1)N/N=C/c1cc(Br)cc(Br)c1O	1.4	-14.8	-15.4	-16.2	-12.7	?
COc1ccc(NC(=O)CCS(=O)(=O)c2ccccc2Cl)cc1S(=O)(=O)Nc1ccc(Cl)cc1	2.0	nt	-25.3	4.8	-2.0	-1.5
COC(=O)C(O)(CC(=O)Nc1ccc(OC)cc1)C(F)(F)F (configuration not stated)	0.6	9.2	-9.0	15.7	-13.2	3.5
NC(=O)C1CCC(NC(=O)OCc2ccccc2)CC1 (configuration not stated)	6.1	3.7	-7.4	4.2	-7.4	1.1
CCCOc1ccc(C(=O)Nc2cccnc2)cc1	0.2	nt	-32.5	-0.1	28.9	2.7
Cc1cccc(Oc2cc([N+](=O)[O-])cc3c2C(=O)Nc2ccccc2O3)c1	0.1	6.9	3.0	3.6	2.3	-23.8

In the list so far, these have an NH in an aromatic ring.
SMILES	TRPML1 agonist	CtBP-E1A blk	D2 potentiator	TRPV1 PAM	TRPML1 inh	Six1-Eya2 inh
Cc1[nH]c(C)c(C(=O)/C=C/c2ccc([N+](=O)[O-])cc2)c1C	0.0	nt	-11.6	2.3	-2.5	-2.6
O=c1[nH]c2ccc(S(=O)(=O)N3CCCCC3)cc2[nH]c1=O	-0.4	4.8	-2.3	-2.7	-17.4	5.5
N#Cc1cc(-c2ccccc2)[nH]c1-c1nccc2ccccc12	-0.6	nt	-18.8	-14.8	-10.7	9.5
O=C(CCc1nc2ccccc2c(=O)[nH]1)OCc1ccc(Cl)cc1Cl	1.1	1.1	-12.3	-4.9	3.2	6.0
CC(Sc1n[nH]c(-c2cccs2)n1)C(=O)Nc1ccc(C(N)=O)cc1 (configuration not stated)	-0.3	2.9	-1.3	2.6	16.1	1.6
CC1CCN(C(=O)CSc2nc3ccccc3[nH]2)CC1	0.7	-1.2	-15.1	-11.4	8.5	-2.2
O=C(NC1CCCCC1)C1c2ccccc2OCC(=O)N1CCc1c[nH]c2ccccc12 (configuration not stated)	1.0	12.3	nt	nt	nt	7.0
CCN(CC)CCNC(=O)CCCCCn1c(=O)[nH]c2cc(C(=O)OC)ccc2c1=O	-0.1	-5.4	-8.1	-0.4	-5.5	4.9
NC(=S)n1[nH]c(-c2ccc([N+](=O)[O-])cc2)c(N=Nc2ccc(Cl)cc2)c1=O	0.5	-2.6	-5.0	-15.9	15.6	-14.0
